# Vaccinia stage: blocks a specific stage of Vaccinia orthopoxvirus infection | activity change (mCherry), % (no concentration beside the values) | 89,000 tested, 0.01% active | Vaccinia-infected cells, mCherry/Venus stage reporter fluorescence; active compounds read low; some inactives read as strong as hits;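 active means mCherry past -33% and 40 or more points under the early reporter, replicates agreeing; inconclusive means past -33% without that gap or agreement; tested in A549 cells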;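 further: scaled between vehicle wells and reference inhibitor wells; 23 nL library stock went into each well; one replicate is shown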
# Vaccinia stage Venus: second read-out of Vaccinia stage, no call of its own (marks repeat the call); activity change (Venus), %; measured here: Venus reporter, other viral stage;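 negative = less Venus signal; first of two replicates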
# Starred values were filed as active, the others as inactive; ? = inconclusive; . = no result given. The list is partial; rates above refer to the full screens.
# Every second line gives: Vaccinia stage Venus, Vaccinia stage
- C[C@@H]1CCCCO[C@@H](CN(C)C)[C@H](C)CN([C@@H](C)CO)C(=O)c2cc(NS(=O)(=O)c3cccs3)ccc2O1
  5, 20
- C[C@H]1CN([C@@H](C)CO)C(=O)c2cccc(NC(=O)Nc3ccc4c(c3)OCO4)c2O[C@H]1CN(C)S(=O)(=O)c1cccs1
  10, 24
- C[C@H]1CCCCO[C@@H](CN(C)S(=O)(=O)c2ccc(F)cc2)[C@@H](C)CN([C@@H](C)CO)C(=O)c2cc(NS(=O)(=O)c3cn(C)cn3)ccc2O1
  -16, -8
- O=C(C[C@H]1C[C@H]2c3cc(NC(=O)c4cccnc4)ccc3O[C@H]2[C@@H](CO)O1)NCc1ccccn1
  5, 5
- O=C(Nc1ccc(-c2ccccc2)cc1)[C@@H]1[C@@H](CO)[C@@H]2Cn3c(cccc3=O)[C@@H]2N1CC1CCCCC1
  ., ?
- CO[C@@H]1CN(C)C(=O)c2cc(NC(=O)c3cnccn3)ccc2OC[C@@H](C)N(CC2CC2)C[C@@H]1C
  10, 17
- COc1ccc2c3c([nH]c2c1)[C@H](CO)N(Cc1nccs1)CC31CCN(C(=O)C2CCCCC2)CC1
  1, 1
- O=C(C1CCC1)N1CC2(C1)[C@@H](c1ccccc1)[C@@H](CO)N2Cc1nccs1
  10, 13
- CN1CCN(C(=O)C[C@@H]2CC[C@@H](NS(=O)(=O)c3cccc(F)c3)[C@H](CO)O2)CC1
  0, 5
- COc1cccc(NC(=O)N(C)C[C@H]2OCc3ccccc3-c3c(n(C)c4ccccc34)C(=O)N([C@@H](C)CO)C[C@@H]2C)c1
  ., ?
- CCCNC(=O)C[C@@H]1CC[C@@H]2[C@H](COc3ccc(NC(=O)c4cccc(C(F)(F)F)c4)cc3C(=O)N2C)O1
  8, 10
- C[C@@H]1CN([C@H](C)CO)C(=O)c2cccc(NC(=O)Nc3ccc4c(c3)OCO4)c2O[C@H]1CN(C)C(=O)Nc1ccc(C(F)(F)F)cc1
  7, 18
- C[C@@H]1CN([C@H](C)CO)C(=O)c2cc(/C=C/c3ccccc3)cnc2O[C@@H]1CN(C)C(=O)c1ccc(F)cc1
  -18, -25
- O=C(Nc1cccc(Cl)c1)N[C@H]1CC[C@H](CCNC(=O)C2CCCCC2)O[C@H]1CO
  1, 9
- CC(C)NC(=O)Nc1ccc2c(c1)C(=O)N([C@@H](C)CO)C[C@H](C)[C@H](CN(C)C(=O)C1CCCCC1)OCCCC[C@H](C)O2
  -6, -3
- O=C(NCC(F)(F)F)[C@H]1[C@H](CO)[C@H]2Cn3c(cccc3=O)[C@@H]1N2CCC(F)(F)F
  9, 10
- COc1ccc(NC(=O)Nc2ccc3c(c2)C(=O)N([C@@H](C)CO)C[C@@H](C)[C@@H](CN(C)C(=O)NC2CCCCC2)OCCCC[C@H](C)O3)cc1
  9, 11
- C[C@@H]1CN([C@@H](C)CO)C(=O)c2cc(NS(=O)(=O)c3cn(C)cn3)ccc2O[C@@H](C)CCCCO[C@@H]1CN(C)Cc1ccc(C(F)(F)F)cc1
  -20, -28
- C[C@@H]1CN([C@@H](C)CO)C(=O)c2cc(NS(=O)(=O)c3ccccc3)ccc2O[C@@H]1CN(C)S(=O)(=O)c1cccs1
  2, 3
- CCC(=O)N[C@H]1CC[C@@H](CCNC(=O)Nc2ccc(F)cc2)O[C@@H]1CO
  17, 8
- Cc1noc(C)c1NC(=O)Nc1ccc2c(c1)CC(=O)N([C@H](C)CO)C[C@H](C)[C@@H](CN(C)Cc1ccc(C(F)(F)F)cc1)O2
  -2, -7
- O=C(C[C@@H]1C[C@H]2c3cc(NC(=O)NC4CCCC4)ccc3O[C@H]2[C@@H](CO)O1)NCc1ccccn1
  29, 29
- COc1ccc2c3c([nH]c2c1)[C@@H](CO)N(C(=O)c1ccc(F)cc1)CC31CN(C(=O)Nc2cccc(F)c2)C1
  -20, -26
- CC=Cc1ccc2n(c1=O)C[C@@H]1[C@@H](CO)[C@H](C(=O)OC)N(CCc3ccccc3)[C@H]21 (mixture of isomers)
  5, -2
- Cc1ccc(-c2ccc3c(c2)O[C@@H](CN(C)Cc2ccncc2)[C@H](C)CN([C@@H](C)CO)S3(=O)=O)cc1
  ., ?
- CCCNC(=O)N1C[C@H](C)[C@@H](OC)CN(C)C(=O)c2ccc(NC(=O)CCC)cc2OC[C@@H]1C
  10, 17
- CC(C)NC(=O)N(C)C[C@H]1Oc2c(NC(=O)Nc3ccc(F)cc3)cccc2C(=O)N([C@@H](C)CO)C[C@H]1C
  -1, -1
- COc1cccc(NC(=O)Nc2ccc3c(c2)C(=O)N(C)C[C@@H](OC)[C@H](C)CN(CCC(F)(F)F)[C@H](C)CO3)c1
  -17, -28
- CC(C)NC(=O)N1[C@H](C#N)[C@H](c2ccc(C#CC3CCCC3)cc2)[C@@H]1CO
  -22, -34
- C[C@@H]1CN([C@@H](C)CO)C(=O)c2cccc(NS(=O)(=O)c3cccs3)c2O[C@H]1CN(C)C(=O)Nc1ccc(F)cc1
  -14, -21
- O=C(C[C@@H]1CC[C@H]2[C@@H](COC[C@H](O)CN2S(=O)(=O)c2cccc(F)c2)O1)NCCCN1CCOCC1
  10, 15
- C[C@@H]1CCCCO[C@H](CN(C)S(=O)(=O)c2ccccc2)[C@@H](C)CN([C@@H](C)CO)C(=O)c2cc(NC(=O)Nc3ccc4c(c3)OCO4)ccc2O1
  8, 22
- CCCNC(=O)N[C@H]1CC[C@@H](CCn2cc(C3CCCCC3)nn2)O[C@H]1CO
  5, -10
- CS(=O)(=O)N1CCCCN2[C@H](C1)[C@H](c1ccc(Br)cc1)[C@@H]2CO
  10, 23
- C[C@@H]1CN([C@@H](C)CO)C(=O)c2cc(NC(=O)CCCN(C)C)ccc2O[C@@H](C)CCCCO[C@H]1CN(C)C(=O)Cc1ccccc1
  0, 17
- COc1ccccc1C#Cc1ccc([C@@H]2[C@H](C#N)N(C(=O)C3CCCC3)[C@H]2CO)cc1
  -17, -33
- COc1ccc(S(=O)(=O)N(C)C[C@@H]2Oc3ncc(-c4ccncc4)cc3C(=O)N([C@@H](C)CO)C[C@H]2C)cc1
  8, 9
- C[C@@H]1CCCCO[C@@H](CN(C)S(=O)(=O)c2ccc(Cl)cc2)[C@@H](C)CN([C@H](C)CO)C(=O)c2cc(NC(=O)CCCCCC(=O)Nc3ccccc3N)ccc2O1
  18, 17
- COCC(=O)N1CCCCN2[C@@H](CO)[C@H](c3ccc(-c4ccc(C)cc4)cc3)[C@@H]2C1
  -20, 3
- C[C@H]1CN([C@@H](C)CO)C(=O)c2cccc(NC(=O)C3CCOCC3)c2O[C@@H]1CN(C)S(C)(=O)=O
  5, 5

# 3 entries from above, tab-delimited:
Molecule	Vaccinia stage Venus	Vaccinia stage
CC(C)NC(=O)N1[C@H](C#N)[C@H](c2ccc(C#CC3CCCC3)cc2)[C@@H]1CO	-22	-34
CC(C)NC(=O)Nc1ccc2c(c1)C(=O)N([C@@H](C)CO)C[C@H](C)[C@H](CN(C)C(=O)C1CCCCC1)OCCCC[C@H](C)O2	-6	-3
COc1ccc(NC(=O)Nc2ccc3c(c2)C(=O)N([C@@H](C)CO)C[C@@H](C)[C@@H](CN(C)C(=O)NC2CCCCC2)OCCCC[C@H](C)O3)cc1	9	11

# The results go on:
# Every second line gives: Vaccinia stage Venus, Vaccinia stage
- CO[C@@H]1CN(C)C(=O)c2cc(NC(=O)C3CCC3)ccc2OC[C@@H](C)N(Cc2nccs2)C[C@H]1C
  -4, -5
- C/C=C/c1ccc2c(c1)O[C@@H](CN(C)C(C)=O)[C@H](C)CN([C@H](C)CO)S2(=O)=O
  18, 24
- C[C@H]1CN([C@@H](C)CO)C(=O)CCCn2nncc2CO[C@@H]1CN(C)Cc1ccncc1
  24, 38
- C[C@H]1CN([C@@H](C)CO)C(=O)c2cc(C#CC3(O)CCCC3)cnc2O[C@H]1CN(C)C(=O)Nc1ccc2c(c1)OCO2
  1, 3
- CN1C(=O)c2cc(NC(=O)C3CCOCC3)ccc2OC[C@H]2O[C@H](CC(=O)NCC3CC3)CC[C@H]21
  1, 7
- O=C(C[C@H]1CC[C@H]2[C@@H](COC[C@@H](O)CN2C(=O)c2ccc3c(c2)OCO3)O1)NC1Cc2ccccc2C1
  3, -1
- COc1ccc(S(=O)(=O)N(C)C[C@@H]2OCCCC[C@H](C)Oc3ccc(NC(=O)Nc4c(C)noc4C)cc3C(=O)N([C@H](C)CO)C[C@H]2C)cc1
  6, 4
- CNC[C@@H]1Oc2ccc(NC(=O)CCC(F)(F)F)cc2CC(=O)N([C@H](C)CO)C[C@H]1C
  -5, 3
- Cc1noc(C)c1NC(=O)Nc1ccc2c(c1)C(=O)N([C@@H](C)CO)C[C@@H](C)[C@H](CN(C)C)OCCCC[C@@H](C)O2
  15, 18
- C[C@@H]1CN([C@H](C)CO)C(=O)c2cccc(NC(=O)c3cnccn3)c2O[C@@H]1CN(C)Cc1ccc2c(c1)OCO2
  1, 3
- O=C(C1CCOCC1)N1CC[C@@H]2[C@H]1c1cc(Br)ccc1N[C@@H]2CO
  -15, -29
- Cc1ccc(S(=O)(=O)N(C)C[C@H]2Oc3ccc(NC(=O)Nc4ccccc4)cc3C(=O)N([C@@H](C)CO)C[C@H]2C)cc1
  ., ?
- C[C@@H]1CN([C@H](C)CO)C(=O)c2cc(NS(=O)(=O)c3cn(C)cn3)ccc2O[C@@H]1CN(C)S(=O)(=O)c1ccccc1
  3, 9
- C[C@@H]1CN([C@H](C)CO)C(=O)c2cc(NC(=O)C3CCCCC3)ccc2O[C@@H](C)CCCCO[C@@H]1CN(C)S(=O)(=O)c1ccc(F)cc1
  0, -10
- C[C@H]1CN([C@@H](C)CO)C(=O)CCCn2nncc2CO[C@H]1CN(C)Cc1ccc2c(c1)OCCO2
  13, 16
- O=C(C1CCCC1)N1C[C@H]2[C@@H](c3ccccc31)[C@H](CO)N2C(=O)c1ccccc1F
  15, 12
- CO[C@H]1CN(C)C(=O)c2cc(NC(=O)C3CCCC3)ccc2OC[C@@H](C)N(C(=O)CC2CC2)C[C@@H]1C
  9, 8
- CO[C@@H]1CN(C)C(=O)c2ccc(NC(=O)Nc3cccc(F)c3)cc2OC[C@@H](C)N(C(=O)Nc2cccc(F)c2)C[C@H]1C
  0, -23
- Cc1ccc(S(=O)(=O)Nc2ccc3c(c2)C(=O)N([C@@H](C)CO)C[C@@H](C)[C@@H](CN(C)C(=O)Nc2ccc(F)cc2)OCCCC[C@H](C)O3)cc1
  1, 8
- C[C@H](O)C#Cc1ccc([C@@H]2[C@@H](CO)N3CCCCN(C(=O)c4ccc5c(c4)OCO5)C[C@H]23)cc1
  0, 9

# Structural class: those above containing a Cl atom.
# Every second line gives: Vaccinia stage Venus, Vaccinia stage
- O=C(Nc1cccc(Cl)c1)N[C@H]1CC[C@H](CCNC(=O)C2CCCCC2)O[C@H]1CO
  1, 9
- C[C@@H]1CCCCO[C@@H](CN(C)S(=O)(=O)c2ccc(Cl)cc2)[C@@H](C)CN([C@H](C)CO)C(=O)c2cc(NC(=O)CCCCCC(=O)Nc3ccccc3N)ccc2O1
  18, 17

# The list goes on:
# Every second line gives: Vaccinia stage Venus, Vaccinia stage
- CN(C)c1ccc2c(c1)[C@@H]1C[C@H](CC(=O)NCc3cccc(F)c3)O[C@H](CO)[C@@H]1O2
  5, 1
- COCC(=O)Nc1ccc2c(c1)C(=O)N(C)C[C@@H](OC)[C@H](C)CN(Cc1cc(F)ccc1F)[C@@H](C)CO2
  1, 1
- C[C@H]1CN([C@@H](C)CO)C(=O)c2cc(NC(=O)Cn3cnnn3)ccc2O[C@H]1CN(C)S(=O)(=O)c1ccc(F)cc1
  10, -5
- O=C(C[C@H]1CC[C@H]2[C@@H](COC[C@@H](O)CN2CC2CCCCC2)O1)NCC1CC1
  -9, -10
- C[C@H](O)C#Cc1ccc2c(c1)O[C@H](CN(C)Cc1ccc(-c3ccccc3)cc1)[C@@H](C)CN([C@H](C)CO)S2(=O)=O
  ., ?
- CCCNC(=O)[C@H]1[C@H](CO)[C@H]2Cn3c(ccc(-c4ccncc4)c3=O)[C@@H]1N2Cc1ccccc1F
  4, -4
- O=C(C[C@H]1CC[C@@H]2[C@H](COC[C@@H](O)CN2S(=O)(=O)c2ccc(F)cc2)O1)NCc1ccc(Cl)c(Cl)c1
  ., ?
- O=C(CC1CC1)N1CC[C@H]2[C@H](CO)Nc3ccc(-c4ccccc4)cc3[C@H]21
  -20, -28
- Cc1ccccc1-c1ccc([C@H]2[C@@H](CO)N3C(=O)CN(C(=O)Nc4ccc(F)cc4)C[C@@H]23)cc1
  -21, -34
- CN(C)CC(=O)N1[C@@H]2Cn3c(ccc(-c4ccccc4)c3=O)[C@H]1[C@@H](C(=O)N1CCN(C)CC1)[C@@H]2CO
  -3, 2
- C[C@H]1CN([C@@H](C)CO)C(=O)Cc2cc(NC(=O)Nc3ccc(C(F)(F)F)cc3)ccc2O[C@H]1CN(C)S(C)(=O)=O
  -12, -7
- Cc1ccc(S(=O)(=O)Nc2ccc3c(c2)C(=O)N([C@H](C)CO)C[C@H](C)[C@H](CN(C)Cc2ccc(C(=O)Nc4ccccc4N)cc2)O3)cc1
  -1, -5
- COC(=O)C[C@H]1CC[C@@H](NS(=O)(=O)c2ccccc2F)[C@H](CO)O1
  16, 11
- CCNC(=O)C[C@@H]1CC[C@H]2[C@H](COc3ccc(NC(=O)Nc4ccc(Cl)cc4)cc3C(=O)N2C)O1
  -9, -19
- O=S(=O)(NCC[C@H]1CC[C@H](NS(=O)(=O)c2ccccc2Cl)[C@@H](CO)O1)c1ccc(F)cc1
  -18, -18
- C[C@@H]1CCCCO[C@H](CN(C)CC2CC2)[C@@H](C)CN([C@H](C)CO)C(=O)c2cc(NS(=O)(=O)c3ccc(Cl)cc3)ccc2O1
  -1, 6
- C/C=C/c1ccc([C@H]2[C@@H](CO)N(C(=O)C3CC3)[C@H]2CNC(=O)NC(C)C)cc1
  -1, -10

# Compound activity from PubChem.
